# FGF22 binding = binders of recombinant human FGF22 by thermal shift; 340,000 tested, 1.5% active; AID 651658; Q9HCT0; calls only at 9.99 µM; SYPRO orange fluorescence; percent of sucrose octasulfate shift, DMSO zero;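 active means melting point raised past a set limit in the mean and every replicate; inconclusive means no clear call; three in four hits are not shown here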
# Target sequence (Q9HCT0 whole entry, looked up): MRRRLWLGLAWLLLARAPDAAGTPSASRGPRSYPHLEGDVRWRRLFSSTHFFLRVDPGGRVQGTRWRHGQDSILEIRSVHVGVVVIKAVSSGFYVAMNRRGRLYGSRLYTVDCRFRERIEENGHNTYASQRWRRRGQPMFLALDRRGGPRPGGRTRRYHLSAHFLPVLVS
# Vif TR-FRET = inhibitors of Vif binding to APOBEC3G peptide, primary screen, biochemical, TR-FRET, GST-Vif 1-94, biotin-A3G peptide, dose response retest (AID 1117319). TR-FRET GST-Vif / biotin-A3G peptide binding; higher % means a stronger effect; test concentration not given here; strong numbers were not always called active. inhibition, %; hits with a dose series show IC50 in µM. 260,000 tested, 0.57% active;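 active means above the screen mean plus three standard deviations and confirmed in dose response; inconclusive means results disagree or hit not tested in dose response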;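 further: Vif residues 1-94 fused to GST binding biotinylated APOBEC3G peptide 110-148; 0% = full assay without inhibitor and 100% = GST in place of GST-Vif; retest series ran down from 100 µM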
# RanGTP-Impb inh = disruptors of Ran-importin-beta complex formation – biochemical, FRET, CFP-Ran, YFP-importin-beta, homogeneous, primary screen. cell-free CFP-Ran/YFP-importin-beta FRET ratio. inhibition, % (test concentration not listed). 300,000 tested, 1.1% active;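 active means most replicates above 15%; inconclusive means exactly half above 15%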;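 further: 0% = DMSO wells and 100% = Ran loaded with GDP instead of GTP; wells of about 40 µL received 100 nL stock; the first replicate is given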
# Ecoli growth = blocks Escherichia coli growth; 330,000 tested, 0.21% active; OD600, 23 h; active compounds read low; OD600 absorbance (test concentration not listed); AID 1053175;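 active means OD600 absorbance below the run mean of sample wells minus 3.6 SD, in any replicate, cut at about 0.56 in these data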;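 further: stock transfer was 300 nL into about 60 µL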
# UCH37 inh = human UCH37 deubiquitinating enzyme inhibition. Q9Y5K5. purified proteasome/UCH37, Ub-AMC cleavage fluorescence. inhibition, % (concentration not given with the values). 330,000 tested, 0.33% active;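 active means mean of two replicates above 20%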;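 further: 0% = compound-free wells with enzyme and 100% = wells lacking proteasome; stock transfer was 100 nL into about 20 µL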
# Target sequence (Q9Y5K5 whole entry, looked up): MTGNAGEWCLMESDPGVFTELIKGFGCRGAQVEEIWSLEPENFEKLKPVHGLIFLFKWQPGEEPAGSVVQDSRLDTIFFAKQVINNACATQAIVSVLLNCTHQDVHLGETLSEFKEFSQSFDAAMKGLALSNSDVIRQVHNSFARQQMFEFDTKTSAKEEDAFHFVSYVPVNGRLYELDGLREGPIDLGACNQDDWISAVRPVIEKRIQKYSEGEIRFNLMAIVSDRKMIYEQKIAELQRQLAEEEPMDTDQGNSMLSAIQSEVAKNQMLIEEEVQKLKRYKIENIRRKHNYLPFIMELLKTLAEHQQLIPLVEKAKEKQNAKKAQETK
#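 Material: Human UCH37 enzyme supplied as purified proteasome complex | Schedule: 30 min compound-proteasome preincubation then 25 min substrate reaction, room temperature | Detection: AMC fluorescence from Ub-AMC cleavage, excitation 355 nm, emission 460 nm | Benchmarks: Wells without proteasome as full block, compound-free enzyme plus substrate as uninhibited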
# HNF4A DNA FP = change in binding of human HNF4 alpha to DNA. P41235. HNF4a-FITC DNA binding, fluorescence polarization, 1 h. activity change, % at 10 µM. 360,000 tested, 0.3% active. AID 1224865; in the data active means activity change above about 30%, passing the limit was not always enough;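 further: controls were the assay level and a saturating level of protein; the project sought stronger binding though the title names inhibitors; some compounds called inactive have numbers as strong as hits; positive values seem to mean higher polarization but the record does not say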
# AF4-AF9 inh = MLL-AF4/AF9 protein interaction inhibition. P42568. AlphaScreen, biotin-AF4 peptide binding to FLAG-AF9. inhibition, % at 10 µM. 350,000 tested, 0.47% active;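 active means every replicate reaching a set inhibition limit, whatever the replicate mean, cut at about 25% in these data; inconclusive means mean inhibition reaches that limit but some replicates miss it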;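 further: 0% = plate neutral control median and 100% = total signal loss; the record names both 10 and 1 µM as test concentration; the first replicate is given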
# Target sequence (P42568 whole entry, looked up): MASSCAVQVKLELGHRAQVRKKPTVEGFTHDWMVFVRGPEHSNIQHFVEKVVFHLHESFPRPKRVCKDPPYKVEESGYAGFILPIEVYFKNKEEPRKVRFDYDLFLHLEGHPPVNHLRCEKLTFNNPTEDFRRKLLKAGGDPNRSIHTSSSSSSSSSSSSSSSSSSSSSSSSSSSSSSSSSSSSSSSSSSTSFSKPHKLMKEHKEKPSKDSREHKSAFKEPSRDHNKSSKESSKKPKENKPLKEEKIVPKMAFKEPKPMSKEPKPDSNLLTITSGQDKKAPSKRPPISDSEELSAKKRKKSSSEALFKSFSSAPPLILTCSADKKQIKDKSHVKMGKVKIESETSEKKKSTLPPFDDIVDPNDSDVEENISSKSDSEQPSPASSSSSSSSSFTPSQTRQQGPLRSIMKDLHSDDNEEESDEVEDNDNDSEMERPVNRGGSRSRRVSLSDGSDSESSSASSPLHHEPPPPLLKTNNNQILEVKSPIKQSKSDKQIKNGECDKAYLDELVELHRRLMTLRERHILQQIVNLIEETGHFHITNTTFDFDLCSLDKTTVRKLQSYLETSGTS
# An asterisk follows results filed as active; i = inactive; ? = inconclusive; / = not tested or not shown; & = joins results of further samples. Not all compounds are listed; count on the stated rates, not on these rows.
SMILES,FGF22 binding,Vif TR-FRET,RanGTP-Impb inh,Ecoli growth,UCH37 inh,HNF4A DNA FP,AF4-AF9 inh
Cc1cccc(C(=O)Nc2nnc(S(=O)(=O)N3CCCCCC3)s2)c1,i,/,-1.5,0.791,5.0,0.8,-1.5
CC(=O)Nc1ccc(NC(=O)COc2c(C)cc(Br)cc2C)cc1,i,3.1%,1.7,0.642,0.9,-3.5,-3.4
O=C(Nc1c(C(=O)O)[nH]c2ccccc12)NC1CCCCC1,/,?,-3.3,0.742,-71.3,-0.5,-8.5
CC(=O)n1nc(-c2cccc(C)c2)nc1SCC(=O)Nc1ccccc1,/,-3.9%,-1.0,0.693,0.5,-0.3,/
COc1ccc(OC)c(C2CC(c3c(-c4ccccc4)c4cc(Cl)ccc4[nH]c3=O)=NN2S(C)(=O)=O)c1 (centres undefined),/,-1.1%,1.0,0.788,-10.5,3.9,/
CC(=O)c1cccc(NC(=O)Cn2nc(-c3ccc(Cl)cc3)ccc2=O)c1,i,/,-2.4,0.65,4.0,4.7,-5.5
CN1CC(=O)N2[C@H](c3ccc4c(c3)OCO4)c3[nH]c4ccccc4c3C[C@@H]2C1=O,i,-3.5%,-1.8,/,6.2,-1.0,-15.7
COC(=O)C1C2CC(C(Br)C2Br)C1C(=O)O (centres undefined),i,-8.4%,/,0.678,-0.2,0.2,-2.1
Cc1cc(C)n(CC(O)COc2cccc(OCC(O)Cn3nc(C)cc3C)c2)n1 (centres undefined),/,-5.5%,-0.2,0.715,0.5,2.5,/
O=C(NC1CCN(Cc2nnnn2CCc2ccccc2)CC1)c1ccccc1F,/,0.8%&-5.9%,-3.1,0.716,3.3,3.5,/
CC(C(=O)NC1CCCC1)n1c(C2CC2)nc2ccccc21 (centres undefined),i,/,/,/,/,4.4,-3.1
CN=C1C([N+](=O)[O-])=CC=C2C1=NC1(CCCCC1)N2O,i,8.0%,4.4,0.739,9.2,1.8,8.0
O=C(COC(=O)c1cc(F)c(F)cc1Cl)NC1CCCCCC1,i,3.8%,/,/,/,0.5,-1.3
Cc1nc2sc3c(c2c(=O)n1/N=C/c1cccnc1)CCCC3,i,7.1%,1.2,/,/,-2.4,0.2
CCCC(c1nnnn1C1CCCCC1)N1CCN(C2CCCC2)CC1 (centres undefined),/,11.8%,-2.8,0.713,0.7,1.0,/
Cc1ccc(S(=O)(=O)NCc2ccccc2)cc1,i,/,5.0,0.659,1.5,-0.6,1.0
O=C1C2C3C=CC(C4CC34)C2C(=O)N1/N=C/c1cccs1 (centres undefined),i,-1.2%,0.1,/,/,2.9,0.2
COc1ccc(OC)c(C(c2nnnn2CCc2ccccc2)N2CCN(c3ccccc3)CC2)c1 (centres undefined),/,-3.5%,-2.1,0.724,3.1,-1.8,/
O=S(=O)(c1cccs1)N1CCN(CC(O)COc2cc(Cl)ccc2Cl)CC1 (centres undefined),/,-4.8%,/,0.698,4.0,-3.5,/
Cc1cc(C)n(-c2ccc(C(=O)NCc3cccs3)cc2)n1,/,26.8%,0.3,0.726,2.4,0.3,/
O=c1[nH]c(CN2CCN(Cc3ccc4c(c3)OCO4)CC2)nc2ccccc12,/,0.3%,-2.9,0.777,-4.0,-2.6,/
O=C(CCCOc1cccc(Br)c1)NCCOc1ccccc1,i,/,-2.3,0.669,7.0,1.7,-5.5
CSc1ccccc1NC(=O)c1ccc([N+](=O)[O-])cc1,i,-4.4%,-3.7,0.7,6.4,-4.0,0.5
CCOC(=O)[C@]12CCCC=C1N(Cc1ccc3c(c1)OCO3)C(=O)[C@H](CC(=O)NCCCN1CCCC1=O)C2,i,/,/,/,/,-2.4,0.0
O=C(NCc1ccc(F)cc1)C1CCC(CNS(=O)(=O)c2cccs2)CC1 (centres undefined),i,/,2.4,0.655,-0.4,3.6,-2.6
CCN1CCN(c2nc(-c3cccs3)nc3ccccc23)CC1,i,/,3.8,0.668,-18.6,-5.1,5.2
CCOC(=O)N1CCC(NC(=O)CC(NS(=O)(=O)c2ccc(Cl)cc2)c2ccco2)CC1 (centres undefined),/,3.0%,1.6,0.708,0.0,1.8,/
COc1cccc(NC(=O)CN(C)C(=O)c2cc(-c3ccco3)nc3ccccc23)c1,i,23.7%,-0.4,0.695,-439.0,-3.0,1.6
CN(C)C(=O)c1ccc(Oc2ccc(C(=O)N(C)C)cc2)cc1,/,-1.6%,-2.8,0.658,-1.6,36.9*,/
O=C(Cn1nnc(-c2ccccc2Cl)n1)N1CCN(S(=O)(=O)c2ccc(Cl)cc2)CC1,/,?,0.8,0.726,-1.1,-0.9,/
COc1ccc(-c2nc(-c3ccccn3)ncc2S(C)(=O)=O)cc1,i,-2.7%,3.3,0.677,6.1,-3.3,0.6
O=C1CC(NC(=O)c2ccc(Cl)cc2)C(=O)N1 (centres undefined),i,/,10.1,0.657,1.5,-2.3,2.5
O=c1[nH]c(SCc2ccccc2)nc2[nH]ncc12,i,-1.5%,1.4,0.654,8.4,0.2,-2.0
CCN1CCN(CCCNC(=O)c2ccc(CS(=O)c3ccc(Br)cc3)o2)CC1 (centres undefined),i,/,-1.0,0.673,2.6,-4.5,-0.1
CCC(OC(=O)c1ccco1)C(=O)NCc1ccc2c(c1)OCO2 (centres undefined),i,/,0.1,0.672,2.0,-1.3,-11.5
CCOC(=O)C1CCN(C(=O)CN2C(=O)C(CC)Oc3ccccc32)CC1 (centres undefined),i,10.0%,-1.9,0.688,3.4,1.9,-66.5

# 5 neighbouring compounds from above, for reference:
SMILES,FGF22 binding,Vif TR-FRET,RanGTP-Impb inh,Ecoli growth,UCH37 inh,HNF4A DNA FP,AF4-AF9 inh
COc1cccc(NC(=O)CN(C)C(=O)c2cc(-c3ccco3)nc3ccccc23)c1,i,23.7%,-0.4,0.695,-439.0,-3.0,1.6
CN(C)C(=O)c1ccc(Oc2ccc(C(=O)N(C)C)cc2)cc1,/,-1.6%,-2.8,0.658,-1.6,36.9*,/
O=C(Cn1nnc(-c2ccccc2Cl)n1)N1CCN(S(=O)(=O)c2ccc(Cl)cc2)CC1,/,?,0.8,0.726,-1.1,-0.9,/
COc1ccc(-c2nc(-c3ccccn3)ncc2S(C)(=O)=O)cc1,i,-2.7%,3.3,0.677,6.1,-3.3,0.6
O=C1CC(NC(=O)c2ccc(Cl)cc2)C(=O)N1 (centres undefined),i,/,10.1,0.657,1.5,-2.3,2.5

# Remaining list, next part
SMILES,FGF22 binding,Vif TR-FRET,RanGTP-Impb inh,Ecoli growth,UCH37 inh,HNF4A DNA FP,AF4-AF9 inh
O=C(N/N=C/c1c(O)n(-c2ccc(Cl)cn2)c(=O)c2ccccc12)c1ccncc1,/,/,-6.3,0.663,4.2,71.8*,/
CC(=O)CC(=O)NC1C2CC3CC(C2)CC1C3 (centres undefined),/,-1.1%,2.3,0.745,-0.6,0.6,/
CCN(CC)CCCNC(=O)Cn1ccc2ccccc2c1=O,i,-1.2%,5.2,0.74,-3.2,-5.5,-1.6
Cn1cc(Br)c(NS(=O)(=O)c2ccc(Cl)s2)n1,i,3.1%,3.2,0.682,3.0,-1.2,/
CCOC(=O)CN1C(=O)N[C@@H](c2ccc(Br)cc2)C(C(=O)OC)=C1C,i,2.5%,-1.4,/,0.7,-0.3,-2.2
CC1(Cc2ccc3c(c2)OCO3)C(=O)Nc2c(Cl)ccc(Cl)c21 (centres undefined),i,/,/,/,/,0.9,2.9
CCn1cc(C(=O)N2CCc3ccccc32)c(=O)c2cc(S(=O)(=O)N3CC(C)CC(C)C3)ccc21 (centres undefined),i,-9.8%,?,0.703,2.5,3.0,5.4
CC(C)C(NC(=O)CCN1C(=O)c2ccccc2C1=O)c1ccccc1 (centres undefined),i,/,-0.8,0.678,1.9,-2.4,-1.5
O=C(CCCc1nc2ccccc2s1)Nc1ccccc1,i,1.9%,2.4,0.717,-0.5,-0.5,-1.1
O=C(COc1ccc2ccccc2c1)Nc1ccc(S(=O)(=O)N2CCCCCC2)cc1,/,0.9%,0.7,0.739,-1.6,3.9,/
Cc1c(Cl)cnc(NC(=O)COC(=O)CCS(=O)(=O)c2ccccc2)c1Cl,/,0.3%,3.1,0.711,-25.2,-0.9,/
COc1ccc(-c2cc(C(=O)Nc3ccccc3SC)no2)cc1,/,5.2%,3.5,0.732,2.3,-0.9,/
COC(=O)c1cc2occc2n1Cc1nc(-c2ccccc2C)oc1C,i,-3.6%,0.9,/,/,3.7,5.6
Cc1occc1-c1nnc(-c2cc([N+](=O)[O-])cc([N+](=O)[O-])c2)o1,i,7.6%,-1.2,0.699,2.7,-3.8,0.5
Cc1c(C=NNc2ccccc2)[nH]c(=O)[nH]c1=O,i,0.5%,/,/,/,15.1,5.7
COc1cccc(C(=O)O/N=C(\N)c2ccc(C)cc2)c1,i,4.1%,-0.5,0.642,2.8,-0.7,-3.3
COc1ccccc1/C=C1\SC(=S)N(C(C(=O)O)c2ccccc2)C1=O (centres undefined),i,-7.9%,-1.5,0.723,9.0,-7.5,-12.0
CCOc1ccc(/C=C/C(=O)c2ccccc2)cc1OC,/,/,-4.0,/,2.7,1.7,/
FC(F)(Cl)c1nnc2ccc(Sc3ccccn3)nn12,i,/,5.0,0.697,1.6,0.4,0.2
CCCC(=O)NC(c1ccccc1OC)c1ccc2cccnc2c1O (centres undefined),/,22.7%,0.6,0.571,0.5,-0.4,/
COc1c(/C=N/Nc2nc(N3CCCCC3)nc(N3CCCCC3)n2)cccc1[N+](=O)[O-],/,?,0.2,/,/,2.6,/
COc1cccc(/C=C/c2nc(S(=O)(=O)c3ccccc3)c(N(C)C)o2)c1,i,-3.8%,-0.5,0.722,-434.6,-3.9,1.7
CCCCNC(=O)C(=O)NCc1ccncc1,i,6.6%,-1.8,0.707,3.0,-1.4,-5.3
CCN(Cc1ccccc1)C(=O)c1cccnc1,i,/,-0.9,0.668,2.2,-0.1,-2.5
Cc1c(CN(C)C)c2c(n1Cc1ccccc1)C(=O)c1ccc(Br)cc1-2,/,17.9%,6.0,0.633,6.2,1.7,/
NNC(=O)c1ccccc1OCCOc1ccccc1,i,/,-2.6,/,/,-4.6,-0.4
Cc1cnc(C(=O)NCCc2ccc(C(F)(F)F)cc2)cn1,i,/,0.2,0.713,4.1,-2.3,1.2
CCCCn1nnnc1C1(C)CCC(=O)N1Cc1ccco1 (centres undefined),i,/,/,/,/,3.2,-1.3
Cc1ccccc1-c1nn(-c2ccc(F)cc2F)cc1CNC1CC1,i,2.8%,-2.1,0.731,3.1,-2.4,0.7
O=C(NCCc1c[nH]c2ccccc12)/C(=C\c1cccnc1)NC(=O)c1ccco1,i,/,7.2,0.709,3.1,6.1,3.7
CN(C)S(=O)(=O)c1ccc(Cl)c(NC(=O)CN2C(=O)NC3(CCCC3)C2=O)c1,i,?,0.8,0.682,3.9,4.3,0.1
CSC1=N/C(=C/c2cccnc2)C(=O)N1Cc1ccccc1,i,10.9%,4.4,0.645,-32.4,-0.1,5.0
O=C(NCCN1CCOCC1)c1cc(-c2ccccc2Cl)on1,i,/,-4.2,0.644,-0.4,-2.1,-2.8
Cc1cc(C)c[n+](C(C)C(=O)c2ccc(Cl)cc2)c1 (centres undefined),i,26.9%,2.2,0.6,1.8,2.8,-3.3
CN(C)/C=N/c1nc(-c2ccc3ccccc3c2)cs1,i,-6.4%,0.1,/,/,-0.2,-52.5
COc1ccc(C2C=C(c3ccc(F)cc3)NC(=S)N2)cc1OC (centres undefined),i,14.4%,-0.1,0.713,-3.0,-0.2,-1.5
Cc1cc(C(=O)NNS(=O)(=O)c2cccc(Cl)c2)nn1C(C)(C)C,i,15.0%,-3.4,0.675,2.7,0.9,/
COc1ccc(NC(=O)c2cnn(-c3ccccc3)c2C)c(OC)c1,i,/,-1.0,0.713,5.5,-2.8,-10.6
CCOC(=O)[C@H]1[C@H]2COc3ccc(Br)cc3[C@H]2N2C(=O)CNC(=O)[C@@]12C,i,/,/,/,0.1,-1.3,4.0
